Beta2AR agonist = activates human beta-2 adrenergic receptor causing internalization; P07550; response, % (test concentration not listed); Am2.2-beta2AR cells, FAP receptor internalization, flow cytometry; reference of the scale not given here; AID 504454; 340,000 compounds, 0.43% hits;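 active means response above a set limit, near 3 SD of response in nonfluorescent compounds, cut at about 42% in these data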;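 further: stock transfer was 100 nL into about 11 µL; a reference agonist was the positive control; negative values mostly stem from fluorescent compounds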
Target sequence (P07550 whole entry, looked up): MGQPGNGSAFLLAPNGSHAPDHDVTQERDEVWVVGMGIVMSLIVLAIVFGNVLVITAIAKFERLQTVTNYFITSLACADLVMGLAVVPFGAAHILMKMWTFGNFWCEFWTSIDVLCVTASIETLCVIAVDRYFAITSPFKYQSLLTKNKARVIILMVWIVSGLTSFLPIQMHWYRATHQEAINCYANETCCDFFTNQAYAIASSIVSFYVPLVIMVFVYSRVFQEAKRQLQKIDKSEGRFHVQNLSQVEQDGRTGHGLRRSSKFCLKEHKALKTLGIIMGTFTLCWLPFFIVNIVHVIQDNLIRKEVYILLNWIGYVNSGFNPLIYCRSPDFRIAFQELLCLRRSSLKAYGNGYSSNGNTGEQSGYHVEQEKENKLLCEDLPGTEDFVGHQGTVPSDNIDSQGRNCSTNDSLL
Beta apoptosis = blocks beta cell apoptosis; 300,000 compounds, 0.8% hits; protection from apoptosis, % (test concentration not listed); INS-1E cytokine-induced death, ATP luminescence, 48 h; percent of positive-control rescue, neutral wells zero;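 active means all replicates at 75% or more, or half of them and the mean; inconclusive means half reach 75% but not the mean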;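 further: 0% = cytokine-treated negative control wells and 100% = positive control rescue; higher means more ATP so stronger rescue from cytokine killing; wells of about 40 µL received 100 nL stock; the first replicate is given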
rRNA inh HTS = inhibitors of bacterial rRNA selective over humanized ribosomes; GFP signal change (wild-type ribosome), % (concentration not given with the values); 350,000 compounds, 1.6% hits; E. coli WT GFP vs humanized-ribosome RFP mutants, fluorescence, 24 h; hits give low values; DMSO median 0, no signal -100;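 active means significant combined selectivity score with lowered wild-type GFP, culture density cut under 30%, mutant RFP and density less affected; inactive means any of these conditions unmet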; further: one replicate is shown; some compounds called inactive have numbers as strong as hits
ALR inh = blocks human ALR sulfhydryl oxidase activity. AID 485317. purified ALR, DTT oxidation, H2O2 HRP-luminol luminescence. 290,000 compounds, 3.8% hits. inhibition, % (test concentration not listed);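 active means mean and each replicate at 75% or more; inconclusive means only one of the two met; inactive means neither met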;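 further: stock transfer was 7.5 nL into about 7.5 µL; 0% = neutral wells and 100% = wells with inactivated enzyme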
Target sequence (P55789 whole entry, looked up): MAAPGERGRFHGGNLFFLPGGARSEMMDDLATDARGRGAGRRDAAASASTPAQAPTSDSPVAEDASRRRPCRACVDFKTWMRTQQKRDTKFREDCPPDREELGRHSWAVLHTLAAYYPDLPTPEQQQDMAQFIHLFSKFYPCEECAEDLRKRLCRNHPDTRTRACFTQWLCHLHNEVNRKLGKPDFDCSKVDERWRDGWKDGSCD
LANA-H2B inh = blocks KSHV LANA binding to histone H2A/H2B. AID 2629. inhibition, % (test concentration not listed). 320,000 compounds, 0.6% hits. cell-free LANA-H2A/H2B peptide, fluorescence polarization; in the data active means inhibition mostly above about 10%, no sharp cut-off; inactive means mostly below about 6.7%;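 further: stock transfer was 7.5 nL into about 10 µL; 0% = median of vehicle wells and 100% = median of positive control wells; one replicate is shown; the record names a cut of 25% in any replicate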
Calb FLC = C. albicans growth modulation with fluconazole. 300,000 compounds, 0.57% hits. C. albicans CaCi-2 (fluconazole-resistant clinical isolate) + fluconazole, Alamar Blue growth, 48 h. growth inhibition, % (no concentration beside the values);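 active means most replicates above 75%; inconclusive means exactly half above 75%; inactive means most below 75%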;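 further: all wells also contain fluconazole at 8 µg/ml as a sub-toxic cotreatment; 0% = median of DMSO wells and 100% = median of geldanamycin control wells; wells of about 8 µL received 7.5 nL stock; the first replicate is given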
Bfl-1 A1 inh = inhibitors of the anti-apoptotic protein A1, read as caspase activation; MEF A1-2A-BIM cells, Caspase-Glo 3/7 luminescence, 3 h; percent of clofoctol response, vehicle zero; caspase activation, % (concentration not given with the values); 330,000 compounds, 0.066% hits;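 active means over half of replicate activation scores above 10%, or exactly half above 10 with the replicate mean above 10; inconclusive means replicate mean below 10 yet half the replicates above 10; inactive means over half of replicates below 10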;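 further: wells of about 30 µL received 50 nL stock; many hits fall short of the cut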
T cruzi repl = blocks replication of Trypanosoma cruzi; T. cruzi beta-gal in NIH3T3, luminescence, 90 h; inhibition, % (no concentration beside the values); 300,000 compounds, 1.4% hits;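 active means mean inhibition across valid replicates above about 55%, limit read from the data; inconclusive means mean below that limit but half or more replicates reach it; inactive means mean below it, under half of replicates reach it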;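 further: signal also drops with host cell toxicity which is not excluded here; 0% = plate median of DMSO wells and 100% = zero luminescence signal; higher percent means less beta-gal luminescence so fewer parasites; stock transfer was 50 nL into about 50 µL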
rRNA inh HTS OD600 = recorded beside rRNA inh HTS, whose call it bears; OD600 change, %; measured here: OD600 growth;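 optical density of the mix in the first replicate; 0 = DMSO median and -100 = no signal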
rRNA inh HTS RFP = second read-out of rRNA inh HTS, no call of its own (marks repeat the call); RFP signal change, %; measured here: RFP humanized mutant strains;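 first replicate; 0 = DMSO median and -100 = no signal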
* hit, by the source's call; u = inconclusive; x = no result given.

SMILES	Beta2AR agonist	Beta apoptosis	rRNA inh HTS	rRNA inh HTS OD600	rRNA inh HTS RFP	ALR inh	LANA-H2B inh	Calb FLC	Bfl-1 A1 inh	T cruzi repl
COc1ccc(Cl)cc1NC(=O)CN(C)C(=O)c1cn(-c2ccccc2)nc1-c1cccnc1	17	1	-8	-2	2.3	-13	2.5	x	0.0	7
CCN(CC(=O)Nc1c(F)cccc1F)C(=O)c1ccccc1F	-3	-8	12	12	3.6	x	-3.1	-5	1.0	-8
O=C(Nc1ccc(S(=O)(=O)N2CCN(c3ccccc3)CC2)cc1)c1cccs1	-14	5	-14	-10	6.0	1	3.6	-16	0.3	40
CCOC(=O)c1cc(NC(=O)Nc2nc3ccccc3s2)c(C)nc1C	-12	-6	x	x	x	-1	-0.9	13	0.3	10
O=C(c1c(Cl)nc2sccn12)N1CCN(c2cccc(Cl)c2)CC1	14	18	x	x	x	-1	2.8	-5	0.3	15
CC(=O)NC(C)C(c1cccs1)N1CCN(c2ccccc2)CC1 (configuration not stated)	0	-3	x	x	x	99*	-0.7	-11	-0.6	-23
CCOc1ccc(-c2c(C(=O)N/N=C/c3ccc(O)cc3)nnn2-c2nonc2N)cc1	-9	-7	-5	-11	-1.3	x	-1.2	-3	-0.2	7
CCC(C)NC(=O)c1csc2c1CCCCC2 (configuration not stated)	-6	-8	x	x	x	11	2.4	-13	1.4	-11
O=C(CCC(=O)Nc1nnc(C2CCCCC2)s1)Nc1ccccc1	-7	-2	2	13	-0.7	1	-0.6	-4	-0.1	-3
CC(C)C[C@H](NC(=O)c1[nH]cnc1C(=O)N[C@@H](Cc1ccccc1)C(=O)OCc1ccccc1)C(=O)OCc1ccccc1	-1	2	3	3	-16	-1	0.3	6	0.3	-9
Cc1ccc(Cn2nnc3c(=O)[nH]c(C4CCN(S(=O)(=O)c5ccc(F)cc5)CC4)nc32)cc1	-3	2	x	x	x	-3	2.7	22	-1.0	-3
Cc1ccc(S(=O)(=O)N(C)C)cc1NC(=O)CSc1nc2ccccc2[nH]1	2	1	x	x	x	-3	1.3	-12	0.7	5
O=C1CC2(CCN(C(=O)c3cccc(F)c3)CC2)Oc2ccccc21	-1	x	3	-6	-1.0	-4	0.1	-16	-0.4	-4
O=C(NCc1ccccc1)c1cc(S(=O)(=O)N2CCC3(CC2)OCCO3)ccc1F	0	-4	x	x	x	4	-2.3	-3	0.8	-11
O=C1c2cccnc2C(O)N1Cc1ccco1 (configuration not stated)	-3	-1	x	x	x	-8	2.7	-21	-0.2	-1
C=CCN1C(=O)/C(=C2/Sc3ccc(OC)cc3N2C)SC1=Nc1cccc(O)c1	4	-7	14	16	8.6	0	0.0	-3	-0.5	-3
COc1ccccc1NC(=O)COc1ccc(C(=O)OCC(=O)N(C(C)C)C(C)C)cc1OC	4	x	x	x	x	0	-2.8	11	0.4	3
CSc1nnc2c3c4c(sc3c(=O)n(-c3ccccc3)n12)CC(C)(C)OC4	-9	2	x	x	x	-2	-3.4	9	-0.7	1
O=C(CN1CCN(Cc2ccccc2Cl)CC1)N/N=C/c1ccco1	-2	x	32	2	3.2	-7	-3.0	-5	0.4	-11
CCN(CC)CCN1C(=O)C(=O)/C(=C(/O)c2c(C)[nH]c(C(=O)OC)c2C)C1c1ccccc1OC (configuration not stated)	-5	-2	x	x	x	-4	4.3	9	0.0	2
Cc1ccccc1C(=O)NCCSc1ccccc1	2	3	x	x	x	x	2.4	5	-0.1	9
O=S(=O)(c1ccccc1)N1CCN(Cc2cc3c(cc2Br)OCCO3)CC1	-7	-4	-6	-13	-2.4	-5	4.3	x	-0.4	x
COc1ccc([N+](=O)[O-])cc1NC(=O)CC1SC(=Nc2cccc(C)c2C)N(/N=C(\C)c2ccc(C)cc2)C1=O (configuration not stated)	6	-10	4	12	5.4	0	3.6	6	0.0	20
O=C1CC2C(CC(OC(=O)c3ccc(-c4ccccc4)cc3)C2CO)O1 (configuration not stated)	16	-5	x	x	x	-5	-7.1	3	-0.2	2
Nc1ncnc2c1ncn2[C@H]1C[C@H](O)[C@@H](CO)O1	0	-3	7	2	-5.9	0	-0.8	x	0.0	x
O=C(N/N=C\c1ccc(Cl)cc1Cl)c1sccc1-n1cccc1	-3	-1	x	x	x	2	-3.9	-17	0.1	0
O=c1ccn([C@@H]2O[C@H](CO)[C@@H](O)[C@H]2O)c(=O)[nH]1	0	-5	x	x	x	1	-2.4	x	-1.2	-21
Cc1cccc(N2C(=O)c3cccc4c(N)ccc(c34)C2=O)c1	2	-6	93	-43	-5.5	39	61*	5	1.1	0
CCCn1nnnc1SCC(=O)Nc1cccc(NC(=O)c2ccco2)c1	-16	-3	x	x	x	0	3.7	10	-0.3	-9
COc1ccc(OC)c(CNc2ccc(F)c(Cl)c2)c1	3	x	-4	4	0.4	22	1.4	0	-0.2	0
CN(C)c1cccc(/C=C(\C#N)c2ccccc2)c1	-13	x	-23	-23	-17	99*	9.3	-9	-5.5	15
CC(=O)Nc1cc(C)c(S(C)(=O)=O)c(C)c1	5	3	x	x	x	-6	-1.0	2	0.3	7
NS(=O)(=O)c1ccc(N/C=C\C(=O)c2ccc3ccccc3c2)cc1	0	-6	x	x	x	-6	-3.3	9	-0.6	-2
C(#CC1CCCCC1)c1ccc2c(c1)COc1c3ccccc3nn1-2	-2	12	-3	-11	-6.7	x	2.0	-10	-0.9	0
O=C(Nc1ccc(Cl)c(S(=O)(=O)N2CCOCC2)c1)c1ccccc1-c1ccc(C(F)(F)F)cc1	2	16	x	x	x	x	x	0	0.6	48
Cc1nc(-n2ncc(C#N)c2N)c2c3c(sc2n1)CCC3	-11	-1	x	x	x	-4	3.8	u	-0.2	-12
Cc1cc(C)c(NC(=O)CSc2nnc(CNC(=O)c3ccco3)o2)c(C)c1	0	-4	2	9	-4.8	7	8.1	0	1.4	-17
COc1ccccc1Oc1coc2c(CN3CCOCC3)c(O)ccc2c1=O	-12	-2	13	12	1.9	-1	3.9	-11	-0.4	-12
Cc1nnc(NC(=O)CSc2n[nH]c(-c3ccccc3C)n2)s1	5	0	-3	-6	-2.0	2	4.9	3	-0.4	-10
CCOn1c(=O)c(-c2ccc(Br)cc2)[n+]([O-])c2ccccc21	-8	-5	6	11	-1.7	-9	-2.8	3	0.3	-9
COc1cccc(-c2ccc(NC(=O)C3CCCN(Cc4ccc(CO)o4)C3)cc2)c1 (configuration not stated)	4	-3	-4	-10	9.2	0	1.4	-10	0.1	-11
CCOC(=O)c1c(C)[nH]c(C(=O)O)c1C	4	5	2	2	3.7	-2	11	-3	-0.2	-16
O=C(CC1CC2CCC1C2)NCc1cccs1 (configuration not stated)	-6	3	x	x	x	-2	1.5	-2	-0.7	9
Cc1cc(C(=O)CCC(=O)N(C)CC(=O)Nc2c(Cl)cccc2Cl)c(C)s1	-1	-8	3	0	3.4	-4	5.6	-2	1.2	-20
O=C(CSc1nnc(-c2ccco2)c(-c2ccco2)n1)Nc1ccccc1	-3	-9	x	x	x	99*	2.7	7	0.2	-6
CCCCCC1CC(CC(C)C(=O)Nc2nncs2)C(=O)O1 (configuration not stated)	8	-4	1	0	-3.8	1	0.1	5	-0.1	-15
CCCCN(CCCC)c1cn[nH]c(=O)c1Cl	6	-5	x	x	x	7	0.1	-1	1.0	7
CCn1ccnc1CN(C)Cc1c(C(=O)N2CCCCCCC2)nc2ccc(Cl)cn12	14	-11	1	6	0.6	-1	1.1	6	0.4	12
Cc1ccc(NC(=O)/C(=C\c2ccc([N+](=O)[O-])cc2)NC(=O)c2ccccc2)cc1	3	-2	x	x	x	2	-9.7	14	0.2	-5
C=CC[C@H](CC(=O)NCCO)C(=O)N[C@H](COC(=O)[C@@H](CC=C)Cc1ccc(F)cc1)c1ccccc1	1	1	-4	0	0.1	-2	11	x	0.6	x
C=CCc1ccc(OCC(O)CN2CCN(Cc3ccccc3)CC2)c(OC)c1 (configuration not stated)	-5	-5	2	-13	1.2	-3	3.6	-42	-0.7	31
CCN(C(=O)Cc1nc(N)n[nH]1)C1(C(=O)Nc2ccccc2)CCCCC1	1	0	x	x	x	-12	2.9	-11	0.6	-2
O=S(=O)(c1ccccc1C(F)(F)F)N1CCOCC1	-2	-4	x	x	x	-8	-3.6	4	-0.3	-9
O=C(NNC(=O)c1cccc(-n2cnnn2)c1)c1ccccc1	-1	-2	14	8	-5.8	2	-1.9	1	0.4	0
C=CCc1cccc2cc(C(=O)NC)c(=O)oc12	-9	-1	x	x	x	-10	-2.0	3	1.0	-5
Cc1ccc(NC(=O)COC(=O)CN2C(=O)c3ccccc3C2=O)cc1	8	-2	x	x	x	2	-14	x	-0.2	x
O=C(Cc1cc(=O)[nH][nH]1)N/N=C/c1cccc2ccccc12	-4	-1	x	x	x	x	-5.6	3	-0.2	-10
Cc1ccc(S(=O)(=O)N/N=C/c2c(F)cccc2Cl)cc1	8	-10	x	x	x	x	3.6	1	0.1	-11
Cc1cc(C)c2c(N=NN3CCOCC3)[nH]nc2n1	-1	x	5	6	-10	2	0.4	1	0.3	0
O=C(CC1(CC(=O)N2CCOCC2)CCCC1)Nc1ccccc1	1	2	6	12	0.2	-20	-2.9	x	-0.5	x

Continued:
SMILES	Beta2AR agonist	Beta apoptosis	rRNA inh HTS	rRNA inh HTS OD600	rRNA inh HTS RFP	ALR inh	LANA-H2B inh	Calb FLC	Bfl-1 A1 inh	T cruzi repl
C/C(=N\NC(=O)c1cccc(N/N=C(\C)c2ccco2)c1)c1ccco1	-2	x	-3	14	-3.8	x	x	-16	x	-7
CCC1CCCCN1C(=O)C1CC(c2cc(Cl)c(OC)cc2OC)=NO1 (configuration not stated)	4	x	x	x	x	-5	-3.9	7	-0.2	9
CN(Cc1ccccc1)CC(O)COc1ccc(CNCCc2ccncc2)cc1 (configuration not stated)	8	-5	-4	-2	2.0	x	3.4	2	-0.3	66*
FC(F)(F)c1ccccc1NC(=S)NC1CCN(Cc2ccccc2)CC1	0	-2	6	4	-0.8	22	0.9	-19	0.5	30
CCc1ccc(N2CC(C(=O)N/N=C/c3cc([N+](=O)[O-])ccc3O)CC2=O)cc1 (configuration not stated)	8	6	9	4	-10	-1	3.1	106*	-0.5	-4
COc1ccc(C(NC(=O)CNC(C)=O)C(=O)Nc2ccc(C(C)C)cc2)cc1 (configuration not stated)	3	-18	x	x	x	-4	-2.9	-5	-0.3	-2
Cc1ccc2cc(/C=C(\C#N)C(N)=O)c(N3CCCCC3)nc2c1	5	-8	89	22	4.0	-1	6.6	7	-0.2	-7
O=C(O)CSCC(=O)Nc1ccc(C(=O)O)cc1	0	-4	x	x	x	-2	4.2	2	0.0	2
CN(C)CCN(C(=O)/C=C/c1cccs1)c1nc2ccc(Br)cc2s1	-1	7	3	1	2.7	x	1.8	6	-0.1	28
CC1Cc2ccccc2N1S(=O)(=O)c1cnc(Cl)c(Cl)c1 (configuration not stated)	12	-3	4	-1	-1.2	x	-4.2	1	-0.3	-1
CC(/C=C/c1ccco1)=N\NC(=O)c1cccnc1	2	x	x	x	x	-3	-0.7	-5	-0.1	6

Assay outcomes from PubChem.

Some of the compounds tested; rates above refer to the full screens.
